RE007 growth inh: qHTS Assay for Inhibitors of the HIV-1 protein Vpr; S. pombe RE007 Vpr strain, BacTiter-Glo ATP luminescence, 24 h; control for the full effect not named in the record; Potency, µM (titrated, usually from 92.2 µM), for the others: top-dose activity change, negative = less growth; hit rate 0.21% among 360,000; active = well fitted falling curve with a large enough effect; inconclusive = small, poorly fitted or top-dose-only effect; inactive = no such curve, though single readings can be large or run the other way;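 note: % is set by controls: 0 for no effect and ±100 for the full control effect; nearly all actives have a fitted effect of over 50% in size; the assay follows cell death caused by Vpr and the record does not say whether a fall means rescue or toxicity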
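Fission yeast strain RE007, carrying one chromosomally integrated HIV-1 vpr copy, was seeded at OD 0.01 in PMG+AL medium with 23 nL pinned compound. After 24 h at 30 °C and 99% humidity, viability was read by BacTiter-Glo luminescence.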
Cruzain inh noDet: qHTS Assay for Promiscuous and Specific Inhibitors of Cruzain (without detergent); Cruzipain (Trypanosoma cruzi), P25779; purified cruzain, Z-FR-AMC fluorescence, no detergent; Potency, µM, for inactives: max response, negative = inhibition, usual class: inhibitors; hit rate 2.3% among 200,000; AID 1476, 2009; active = well fitted curve in the direction sought with a large enough effect; inconclusive = small, poorly fitted or top-dose-only effect, or another doubt; inactive = no such curve, though single readings can be large; an effect the other way counts as inactive or inconclusive;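 note: plate controls were enzyme without inhibitor for no effect and buffer without enzyme for full effect; nearly all actives have a fitted effect of over 40% in size; top concentration of the series not given in the record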
Target sequence (P25779 123-467 limits assumed): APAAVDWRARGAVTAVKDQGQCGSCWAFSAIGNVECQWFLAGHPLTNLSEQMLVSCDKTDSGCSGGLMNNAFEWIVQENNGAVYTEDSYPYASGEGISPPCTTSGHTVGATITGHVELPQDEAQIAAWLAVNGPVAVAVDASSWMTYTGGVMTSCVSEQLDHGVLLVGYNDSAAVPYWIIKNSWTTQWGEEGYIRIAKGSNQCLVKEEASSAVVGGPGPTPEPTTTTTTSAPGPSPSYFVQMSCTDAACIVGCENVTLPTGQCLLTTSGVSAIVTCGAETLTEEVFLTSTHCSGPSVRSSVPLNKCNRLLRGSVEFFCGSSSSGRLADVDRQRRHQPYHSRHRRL
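Purified cruzain at 1.5 nM, pre-incubated 15 min with compound at room temperature in 100 mM sodium acetate pH 5.5, 5 mM DTT, 0.00005% Triton X-100. Reaction started with 2 uM Z-FR-AMC; AMC fluorescence increase over 60 s gives rate.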
Lassa entry inh: qHTS for Inhibitors of binding or entry into cells for Lassa Virus | Lassa virus pseudotype entry inhibition, cell reporter; control for the full effect not named in the record | Potency, µM (highest dose often 37.9 µM), for the others: top-dose activity change, negative = inhibition, most hits filed as inhibitors | hit rate 1.2% among 300,000 | AID 540256, 2011; active means well fitted inhibition curve with a large enough effect; inconclusive means small, poorly fitted or top-dose-only effect, or effect the other way; inactive means flat fitted curve, though single readings scatter; tested in HEK293 cells; note: % is set by controls: 0 for no effect and ±100 for the full control effect; nearly all actives have a fitted effect of over 50% in size; luciferase read-out
SARS PLP yeast: qHTS of Yeast-based Assay for SARS-CoV PLP; S. cerevisiae expressing SARS-CoV PLpro, growth rescue; control for the full effect not named in the record; Potency, µM (highest dose often 32.9 µM), without a hit: at the top dose activity, positive = growth rescue; hit rate 0.19% among 330,000; AID 485353, 2010; note: 0% is about no effect; nearly all actives have a fitted effect of over 55% in size; growth read by luminescence after 48 h
NS1 inh: qHTS Assay for Inhibitors of Influenza NS1 Protein Function; hit rate 0.4% among 270,000; Potency, µM (series often up to 46.1 µM), without a hit: top-dose activity, positive = more growth; S. cerevisiae slowed by influenza A NS1, growth recovery by OD600; note: actives are rising curves; nearly all actives have a fitted effect of over 50% in size
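Growth recovery, yeast-based: influenza A NS1 expressed in S. cerevisiae causes slow growth, and suppressors are detected by OD600. The parent strain without NS1 is used as positive control.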
Cruzain inh Det: qHTS Assay for Promiscuous and Specific Inhibitors of Cruzain (with detergent); hit rate 0.43% among 200,000; purified cruzain, Z-FR-AMC fluorescence, 0.01% Triton; Potency, µM, for inactives: max response, negative = inhibition, actives largely listed as inhibitors; Cruzipain (Trypanosoma cruzi), P25779; active = well fitted curve in the direction sought with a large enough effect; inconclusive = small, poorly fitted or top-dose-only effect, or another doubt; inactive = no such curve, though single readings can be large; an effect the other way counts as inactive or inconclusive;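 note: plate controls were neutral wells for no effect and buffer without enzyme for full effect; nearly all actives have a fitted effect of over 40% in size; top concentration of the series not given in the record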
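In this qHTS format, compounds are incubated with 1.5 nM cruzain for 15 min at room temperature before 2 uM Z-FR-AMC is added. Release of AMC is followed at 360/450 nm, and progress is taken as the 60 s fluorescence difference.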
MARV entry inh: qHTS for inhibitors of binding or entry into cells for Marburg Virus; Marburg virus pseudotyped entry inhibition, cell reporter; control for the full effect not named in the record; about a third of the inactives were read at about 46 µM; Potency, µM (highest dose often 37.8 µM), for inactives: top-dose activity change, negative = inhibition, most hits filed as inhibitors; hit rate 1.8% among 300,000; active = well fitted inhibition curve with a large enough effect; inconclusive = small, poorly fitted or top-dose-only effect, or effect the other way; inactive = flat fitted curve, though single readings scatter; tested in HEK293 cells; about a fifth of its hits are not listed in these tables; note: % is set by controls: 0 for no effect and ±100 for the full control effect; luciferase read-out
StopGo reporter: High Throughput Screening for Foot and Mouth Disease Virus Antivirals; hit rate 1.2% among 410,000; Potency, µM (top dose mostly 57.9 µM), without a hit: at the top dose signal change, negative = less light; human cells with a luciferase reporter of 2A StopGo recoding; control for the full effect not named in the record; AID 1159524, 2015; active = well fitted falling curve with a large enough effect; inconclusive = small, poorly fitted or top-dose-only effect; inactive = no such curve, though single readings can be large or run the other way; tested in HEK293T cells; note: % is set by controls: 0 for no effect and ±100 for the full control effect; nearly all actives have a fitted effect of over 45% in size; luciferase light after 4 h
The depositor's hits bear a star; [ ] = another dose, or the depositor's remark. Unless noted, calls come from the whole dose curve; as a rule, active means well fitted rising curve with a large enough effect; inconclusive means small, poorly fitted or top-dose-only effect; inactive means no such curve, though single readings can be large or run the other way. Potency is the fitted concentration of half-maximal effect.

How did S=C(NC12CC3CC(CC(C3)C1)C2)N1CCOCC1 do in these assays?
RE007 growth inh: 2%; SARS PLP yeast: 1%; NS1 inh: 6%; StopGo reporter: 2%

Results for CCOc1cc(-c2nn3cnnc3s2)cc(OCC)c1OCC ?
RE007 growth inh: -24%; Cruzain inh noDet: 6%; Lassa entry inh: 10%; SARS PLP yeast: 1%; NS1 inh: -8%; Cruzain inh Det: -0.6%; MARV entry inh: 2%; StopGo reporter: -22%

Results for CCOC(=O)c1c(NC(=O)CSc2nnc(-c3ccco3)o2)sc(C(C)=O)c1C ?
RE007 growth inh: 4%; Cruzain inh noDet: 16%; Lassa entry inh: -17%; NS1 inh: -98%; Cruzain inh Det: -6.0%; MARV entry inh: inconclusive; StopGo reporter: inconclusive

What do the screens show for `COc1cc(C(=O)Nc2ccc3nc(SCc4ccccc4)sc3c2)cc(OC)c1OC`?
Cruzain inh noDet: 4%; Lassa entry inh: inconclusive; Cruzain inh Det: -3.6%; MARV entry inh: 13%[46.1 µM]; StopGo reporter: inconclusive

What do the screens show for `Cc1cc(C(=O)COC(=O)C2=COCCO2)c(C)n1-c1ccccc1`?
RE007 growth inh: 6%; Lassa entry inh: 2.2µM*; SARS PLP yeast: -9%; MARV entry inh: 5.6µM*; StopGo reporter: inconclusive

How did Cc1[nH]n(-c2ccccc2)c(=O)c1/C=N/N1CCOCC1 do in these assays?
RE007 growth inh: -5%; SARS PLP yeast: 7%; NS1 inh: 4%; StopGo reporter: 4%

How did Cc1ccc(N2CC(NC(=O)Cc3cccs3)CC2=O)cc1C (stereo not drawn) do in these assays?
Cruzain inh noDet: -2%; Lassa entry inh: -4%[46.1 µM]; Cruzain inh Det: 2.1%; StopGo reporter: 2%

What do the screens show for `COc1cc(/C=C2\SC(=S)N(CC(=O)Nc3ccccn3)C2=O)cc(OC)c1OC`?
RE007 growth inh: 0%; Cruzain inh noDet: -2%; Lassa entry inh: inconclusive; SARS PLP yeast: 11%; NS1 inh: 13%; Cruzain inh Det: -13%; MARV entry inh: -7%; StopGo reporter: -19%

What do the screens show for `Cc1ccc(CN2C(=O)c3ccccc3NC23CCN(Cc2ccccc2)CC3)cc1`?
RE007 growth inh: 2%; Lassa entry inh: inconclusive; SARS PLP yeast: -1%; MARV entry inh: inconclusive; StopGo reporter: 0%

Results for COc1ccc(NC(=O)CN2C(=O)CC(C)S(=O)(=O)c3ccccc32)cc1 (stereo not drawn) ?
RE007 growth inh: -7%; SARS PLP yeast: 1%; NS1 inh: 12%; StopGo reporter: -6%

What do the screens show for `CCC(C)NC(=O)CCCn1c(=O)c2cccn2c2ccccc21` (stereo not drawn)?
Cruzain inh noDet: inconclusive; Lassa entry inh: 19%[46.1 µM]; Cruzain inh Det: 0.0%; StopGo reporter: 56%[activator]

What do the screens show for `Cc1ccc(-c2cc(-c3ccccc3Cl)c(C#N)c(N)n2)o1`?
RE007 growth inh: -1%; Cruzain inh noDet: 15%; Lassa entry inh: -5%; SARS PLP yeast: -32%; NS1 inh: -42%; Cruzain inh Det: 9.9%; MARV entry inh: -3%[46.1 µM]; StopGo reporter: inconclusive

Results for COc1ccc(NC(=O)/C=C/c2cccc(C(F)(F)F)c2)cn1 ?
RE007 growth inh: inconclusive; Lassa entry inh: inconclusive; SARS PLP yeast: -42%; NS1 inh: -13%; MARV entry inh: inconclusive; StopGo reporter: inconclusive

What do the screens show for `CC(=O)Nc1ccccc1P(=O)(c1ccccc1)c1ccccc1OC(C)=O` (stereo not drawn)?
RE007 growth inh: -8%; Lassa entry inh: 14%; SARS PLP yeast: 0%; NS1 inh: -1%; MARV entry inh: -11%; StopGo reporter: -7%

What do the screens show for `O=S1(=O)N(CCN2CC=C(c3c[nH]c4cc(F)ccc34)CC2)c2cccc3c2N1CCC3`?
RE007 growth inh: -3%; Cruzain inh noDet: inconclusive; Lassa entry inh: inconclusive; SARS PLP yeast: -5%; NS1 inh: inconclusive; Cruzain inh Det: -14%; MARV entry inh: inconclusive; StopGo reporter: 0%

What do the screens show for `O=C1C(=C2CCCCC2)SC(=S)N1Cc1ccco1`?
RE007 growth inh: -18%; Cruzain inh noDet: 16µM*; Lassa entry inh: 0%; SARS PLP yeast: -2%; NS1 inh: -2%; Cruzain inh Det: 20µM*; MARV entry inh: -29%; StopGo reporter: 0%

Results for CC(=O)N1CCCc2cc(S(=O)(=O)N(C)CC(=O)Nc3ccc(C(C)C)cc3)ccc21 ?
Cruzain inh noDet: inconclusive; Lassa entry inh: -28%[46.1 µM]; Cruzain inh Det: -2.8%; StopGo reporter: -18%

How did O=C(NCc1ccc(F)cc1)C(=O)NCC(c1ccco1)S(=O)(=O)c1cccs1 (stereo not drawn) do in these assays?
Cruzain inh noDet: -18%; Lassa entry inh: -1%[46.1 µM]; Cruzain inh Det: -0.1%; StopGo reporter: -20%

Results for CCCCC(OC(=O)CN1C(=O)COc2ccccc21)C(=O)NC1CCCCC1 (stereo not drawn) ?
RE007 growth inh: 9%; Lassa entry inh: -2%; SARS PLP yeast: -6%; NS1 inh: -1%; MARV entry inh: -30%[46.1 µM]; StopGo reporter: 0%

Results for Cc1ccc(-c2nc(CS(=O)CC(=O)NCCCN3CC(C)CC(C)C3)c(C)o2)cc1 (stereo not drawn) ?
RE007 growth inh: -11%; Cruzain inh noDet: 3%; SARS PLP yeast: 2%; NS1 inh: inconclusive; Cruzain inh Det: -1.9%; MARV entry inh: 0%; StopGo reporter: 0%

Results for CCOc1cc(-c2nnc(-c3ccco3)o2)cc(OCC)c1OCC ?
RE007 growth inh: -11%; Cruzain inh noDet: inconclusive; Lassa entry inh: -19%; SARS PLP yeast: 6%; NS1 inh: 7%; Cruzain inh Det: -3.1%; MARV entry inh: -28%; StopGo reporter: -21%

Results for O=C(NCCc1nc2ccccc2n1CCOc1ccc(Cl)cc1)C1CCCCC1 ?
Cruzain inh noDet: 0%; Lassa entry inh: inconclusive; Cruzain inh Det: 1.3µM*; MARV entry inh: inconclusive

How did O=C(O)c1ccccc1NS(=O)(=O)c1ccc(NNC(=S)Nc2ccc(OC(F)F)cc2)c([N+](=O)[O-])c1 do in these assays?
RE007 growth inh: -3%; Lassa entry inh: 10%[46.1 µM]; SARS PLP yeast: 0%; MARV entry inh: 1%[46.1 µM]; StopGo reporter: inconclusive

Results for O=C(Nc1nccs1)c1cccnc1Cl ?
RE007 growth inh: 5%; SARS PLP yeast: 0%; NS1 inh: 7%; StopGo reporter: -1%

How did CCN(CC)CCOc1cc2c(nn1)Oc1ccccc1N2C do in these assays?
RE007 growth inh: 5%; Cruzain inh noDet: -2%; Lassa entry inh: 1%; SARS PLP yeast: 0%; NS1 inh: inconclusive; Cruzain inh Det: -2.3%; MARV entry inh: inconclusive

Results for COC(=O)C1=CN(Cc2ccc(OC)cc2)C=C(C(=O)OC)C1c1ccsc1 ?
RE007 growth inh: 19%; Lassa entry inh: 10µM*; SARS PLP yeast: 1%; NS1 inh: -1%; MARV entry inh: inconclusive; StopGo reporter: -8%

How did CC(NC(=O)CCCn1cc([N+](=O)[O-])cn1)c1ccccc1 (stereo not drawn) do in these assays?
RE007 growth inh: 15%; Lassa entry inh: 4%; SARS PLP yeast: -5%; MARV entry inh: 2%; StopGo reporter: 1%

How did Cc1ccc(-n2c(=O)c3c(C)c(C(=O)N(C)C)sc3n(CC(=O)C(C)(C)C)c2=O)cc1C do in these assays?
Cruzain inh noDet: 0%; Lassa entry inh: inconclusive; Cruzain inh Det: 3.1%; StopGo reporter: -14%

How did COc1ccc(CNc2ccc(-c3ccccc3OC)nn2)cc1 do in these assays?
RE007 growth inh: -2%; Cruzain inh noDet: -3%; Lassa entry inh: -2%; SARS PLP yeast: -16%; NS1 inh: -23%; Cruzain inh Det: -3.0%; MARV entry inh: 3%; StopGo reporter: 21%

What do the screens show for `CCc1cc(=O)oc2c(C)c(OC(C)C(=O)NCCCN3CCOCC3)ccc12` (stereo not drawn)?
RE007 growth inh: -11%; SARS PLP yeast: 3%; NS1 inh: -12%; StopGo reporter: 5%

How did CCOc1cc(/C=C/c2nc3ccccc3s2)ccc1OCC(=O)N1CCOCC1 do in these assays?
RE007 growth inh: 0%; Cruzain inh noDet: 24%; Lassa entry inh: inconclusive; SARS PLP yeast: 10%; NS1 inh: -28%; Cruzain inh Det: -21%; MARV entry inh: inconclusive; StopGo reporter: inconclusive

Results for Cn1c(=O)c2c(nc(CN3CCOCC3)n2CCc2ccccc2)n(C)c1=O ?
RE007 growth inh: 1%; Cruzain inh noDet: 16%; Lassa entry inh: -3%; SARS PLP yeast: 5%; NS1 inh: -3%; Cruzain inh Det: 5.2%; MARV entry inh: 12%; StopGo reporter: -8%

What do the screens show for `CC(C)CC(OC(=O)c1nsc(Cl)c1Cl)C(=O)NC1CCCC1` (stereo not drawn)?
RE007 growth inh: -24%; Lassa entry inh: 3%; SARS PLP yeast: 1%; NS1 inh: -22%; MARV entry inh: 13%[46.1 µM]; StopGo reporter: -14%

Among those listed so far, 2 have an aryl thioether with sulfur outside any ring.
Results for CCOC(=O)c1c(NC(=O)CSc2nnc(-c3ccco3)o2)sc(C(C)=O)c1C ?
RE007 growth inh: 4%; Cruzain inh noDet: 16%; Lassa entry inh: -17%; NS1 inh: -98%; Cruzain inh Det: -6.0%; MARV entry inh: inconclusive; StopGo reporter: inconclusive

What do the screens show for `COc1cc(C(=O)Nc2ccc3nc(SCc4ccccc4)sc3c2)cc(OC)c1OC`?
Cruzain inh noDet: 4%; Lassa entry inh: inconclusive; Cruzain inh Det: -3.6%; MARV entry inh: 13%[46.1 µM]; StopGo reporter: inconclusive
